Yeast UUG start: yeast start codon fidelity modulation. hit rate 0.13% among 350,000. S. cerevisiae UUG-firefly luciferase reporter, luminescence/redox ratio. activity score, % at 18.7 µM;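 active = replicate mean at a twofold rise or more, about +100% in these data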;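 note: firefly luciferase made from a UUG start codon reports start codon fidelity; reporter light over untreated wells divided by growth signal over untreated wells; some hits fall short of that in this replicate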
The depositor's hits bear a star. The list is partial; count on the stated rates, not on these rows.

molecule	Yeast UUG start
COc1ccc(NC(=O)Nc2cccc3c2O[C@@H](CN(C)C)[C@H](C)CN([C@@H](C)CO)C3=O)cc1	-12.6
CN1CCN(C(=O)C[C@H]2CC[C@H]3[C@@H](COC[C@@H](O)CN3Cc3ccc4c(c3)OCO4)O2)CC1	-7.3
COCC(=O)Nc1ccc2c(c1)OC[C@H](C)N(Cc1ccccc1)C[C@@H](C)[C@H](OC)CN(C)C2=O	4.1
CCOC(=O)N(C)C[C@@H]1OCc2ccccc2-c2c(n(C)c3ccccc23)C(=O)N([C@H](C)CO)C[C@@H]1C	27.7
C[C@H](CO)N1C[C@H](C)[C@@H](CN(C)S(=O)(=O)c2ccc(Cl)cc2)Oc2c(NS(C)(=O)=O)cccc2C1=O	0.4
O=C(Nc1ccccc1F)N1C[C@@H]2[C@H](c3ccccc31)[C@@H](CO)N2C(=O)c1ccc(F)cc1	-0.3
CCC(=O)Nc1ccc2c(c1)C(=O)N(C)C[C@H](OC)[C@@H](C)CN(Cc1ccccc1C(=O)O)[C@@H](C)CO2	-7.7
CCC(=O)N(C)C[C@@H]1[C@@H](c2ccc(C3=CCCCC3)cc2)[C@H](CO)N1C(C)=O	-4.4
CC(C)NC(=O)Nc1ccc2c(c1)C(=O)N([C@@H](C)CO)C[C@@H](C)[C@@H](CN(C)S(=O)(=O)c1ccccc1)O2	-3.3
CN1c2ccc(-c3cccc(F)c3)cc2[C@@H]2[C@@H](CCN2C(=O)Cc2cccnc2)[C@@H]1CO	-13.8
C[C@@H]1CN([C@H](C)CO)C(=O)c2cc(NC(=O)Cc3ccccc3)ccc2O[C@H]1CN(C)C(=O)Nc1ccc(F)cc1	14.9
CCCC(=O)Nc1ccc2c(c1)C(=O)N(C)[C@@H]1CC[C@@H](CC(=O)N3CCCCC3)O[C@@H]1CO2	2.3
CNC[C@@H]1Oc2ccc(NC(=O)Nc3ccc(F)cc3)cc2CC(=O)N([C@H](C)CO)C[C@H]1C	4.8
O=C(C[C@H]1C[C@H]2c3cc(NS(=O)(=O)c4ccc(F)cc4)ccc3O[C@H]2[C@@H](CO)O1)NCc1cc(F)ccc1F	-6.7
Cc1ccc(S(=O)(=O)N2C[C@H](O)COC[C@H]3O[C@@H](CC(=O)NCCCN(C)C)CC[C@@H]32)cc1	-0.2
OC[C@@H]1[C@H](c2ccc(C#CC3CC3)cc2)[C@H]2CN(CCC(F)(F)F)CCCCN12	12.5
Cc1ccc(S(=O)(=O)N(C)C[C@@H]2Oc3ccc(NC(=O)CCC(F)(F)F)cc3CC(=O)N([C@H](C)CO)C[C@@H]2C)cc1	15.7
COc1ccc(NC(=O)N2CCCCN3[C@H](C2)[C@H](c2ccc(C#CCC(C)C)cc2)[C@@H]3CO)cc1	22.7
C[C@@H]1CN([C@H](C)CO)C(=O)Cc2cc(NS(=O)(=O)c3ccc(Cl)cc3)ccc2O[C@H]1CN(C)C(=O)Nc1ccccc1	4.8
COc1ccc(S(=O)(=O)N(C)C[C@H]2Oc3c(NC(=O)C4CCCCC4)cccc3C(=O)N([C@@H](C)CO)C[C@@H]2C)cc1	3.0
C[C@H]1CN([C@@H](C)CO)C(=O)c2cc(NS(=O)(=O)c3ccc(Cl)cc3)ccc2O[C@@H]1CN(C)C(=O)NC1CCCCC1	3.7
C[C@H]1CN([C@@H](C)CO)C(=O)c2cccc(NC(=O)Nc3ccccc3)c2O[C@H]1CN(C)Cc1ccncc1	15.1
CCCNC(=O)[C@@H]1[C@@H](CO)[C@@H]2Cn3c(ccc(C4=CCCCC4)c3=O)[C@@H]2N1C(=O)c1cnccn1	10.3
Cc1ccccc1S(=O)(=O)N1CCCCN2[C@H](CO)[C@@H](c3ccc(-c4ccccc4)cc3)[C@@H]2C1	-4.7
O=C(c1ccncc1)N1C[C@H]2[C@@H](c3ccccc31)[C@@H](CO)N2C(=O)c1ccccc1F	-1.5
C[C@H](CO)N1C[C@H](C)[C@@H](CN(C)Cc2ccc3c(c2)OCO3)Oc2ccc(NS(=O)(=O)c3ccccc3)cc2CC1=O	-3.2
COc1ccccc1C(=O)N1C[C@@H]2[C@H](c3ccccc31)[C@@H](CO)N2Cc1ccc(F)cc1	-7.5
C[C@H]1CN([C@@H](C)CO)C(=O)c2cc(NC(=O)Nc3cccc4ccccc34)ccc2O[C@@H]1CN(C)S(=O)(=O)c1cccs1	0.0
O=C(C[C@H]1CC[C@H]2[C@@H](COC[C@H](O)CN2Cc2cccc(-c3ccncc3)c2)O1)N1CCN(c2ccccc2)CC1	-12.0
C[C@@H]1CN([C@@H](C)CO)C(=O)c2cc(NC(=O)C3CCCCC3)ccc2O[C@@H]1CN(C)Cc1ccc(C(=O)O)cc1	0.7

Random excerpt: 2 entries already listed, in no set order.
molecule	Yeast UUG start
C[C@@H]1CN([C@@H](C)CO)C(=O)c2cc(NC(=O)C3CCCCC3)ccc2O[C@@H]1CN(C)Cc1ccc(C(=O)O)cc1	0.7
CC(C)NC(=O)Nc1ccc2c(c1)C(=O)N([C@@H](C)CO)C[C@@H](C)[C@@H](CN(C)S(=O)(=O)c1ccccc1)O2	-3.3

Next entries
molecule | Yeast UUG start
Cc1noc(C)c1NC(=O)N(C)C[C@@H]1Oc2c(NC(=O)c3nc4ccccc4s3)cccc2C(=O)N([C@H](C)CO)C[C@@H]1C | 2.6
C[C@H]1CN([C@@H](C)CO)C(=O)c2cccc(NS(=O)(=O)c3cn(C)cn3)c2O[C@@H]1CN(C)C(=O)Nc1cccc2ccccc12 | 0.0
Cc1ccc(S(=O)(=O)N(C)C[C@H]2Oc3ccc(NC(=O)c4ccncc4)cc3C(=O)N([C@H](C)CO)C[C@@H]2C)cc1 | 3.2
CCC(=O)Nc1ccc2c(c1)OC[C@@H](C)N(C(=O)Cc1cccnc1)C[C@H](C)[C@H](OC)CN(C)C2=O | 9.9
COc1ccc(S(=O)(=O)Nc2ccc3c(c2)C(=O)N([C@@H](C)CO)C[C@H](C)[C@H](CN(C)C(=O)NC2CCCCC2)O3)cc1 | -15.1
C[C@@H]1CN([C@@H](C)CO)C(=O)c2cccc(NC(=O)C3CCCCC3)c2O[C@H]1CN(C)Cc1ccc(Oc2ccccc2)cc1 | -2.0
O=S(=O)(c1cccc(F)c1)N1CC[C@@H]2[C@H](CO)Nc3ccc(C#Cc4cccc(F)c4)cc3[C@@H]21 | -12.0
O=C(c1ccc(F)cc1)N1CCCCN2[C@@H](CO)[C@H](c3ccc(C#CC4(O)CCCC4)cc3)[C@@H]2C1 | -6.0
C[C@H]1CN([C@@H](C)CO)C(=O)c2cc(NC(=O)Nc3ccc(C(F)(F)F)cc3)ccc2O[C@@H]1CN(C)Cc1ccc(C(=O)Nc2ccccc2N)cc1 | -3.3
CCC(=O)Nc1ccc2c(c1)C(=O)N(C)C[C@H](OC)[C@H](C)CN(C(=O)C1CC1)[C@H](C)CO2 | -3.9
C[C@@H]1CN([C@H](C)CO)C(=O)c2cccc(NC(=O)C3CCOCC3)c2O[C@@H]1CN(C)Cc1ccc(C(=O)Nc2ccccc2N)cc1 | 1.1
O=C(C[C@H]1CC[C@@H]2[C@H](COC[C@H](O)CN2C(=O)Nc2ccc(C(F)(F)F)cc2)O1)NCCc1ccncc1 | -9.5
O=C(c1ccc(F)cc1)N1CCCCN2[C@H](CO)[C@@H](c3ccc(C#CC4(O)CCCC4)cc3)[C@@H]2C1 | -2.6
COc1ccc(NC(=O)Nc2cccc3c2O[C@H](CN(C)CC2CCCCC2)[C@@H](C)CN([C@@H](C)CO)C3=O)cc1 | 11.7
CN(C)C(=O)c1cccc(-c2ccc([C@@H]3[C@H](CO)N4CCCCN(C(=O)C5CCC5)C[C@@H]34)cc2)c1 | -16.9

Five compounds already listed, arranged by molar mass, lowest first:
molecule | Yeast UUG start
CCC(=O)Nc1ccc2c(c1)OC[C@@H](C)N(C(=O)Cc1cccnc1)C[C@H](C)[C@H](OC)CN(C)C2=O | 9.9
O=C(C[C@H]1CC[C@@H]2[C@H](COC[C@H](O)CN2C(=O)Nc2ccc(C(F)(F)F)cc2)O1)NCCc1ccncc1 | -9.5
COc1ccc(NC(=O)Nc2cccc3c2O[C@H](CN(C)CC2CCCCC2)[C@@H](C)CN([C@@H](C)CO)C3=O)cc1 | 11.7
Cc1ccc(S(=O)(=O)N(C)C[C@H]2Oc3ccc(NC(=O)c4ccncc4)cc3C(=O)N([C@H](C)CO)C[C@@H]2C)cc1 | 3.2
C[C@H]1CN([C@@H](C)CO)C(=O)c2cc(NC(=O)Nc3ccc(C(F)(F)F)cc3)ccc2O[C@@H]1CN(C)Cc1ccc(C(=O)Nc2ccccc2N)cc1 | -3.3

Going on with the list:
molecule | Yeast UUG start
Cc1ccc(S(=O)(=O)N2C[C@@H](O)COC[C@@H]3O[C@H](CC(=O)NCC4CCCCC4)CC[C@H]32)cc1 | 33.3
CCNC(=O)C[C@@H]1CC[C@@H]2[C@H](COC[C@H](O)CN2S(=O)(=O)c2ccc(Oc3ccccc3)cc2)O1 | 20.9
CCC(=O)Nc1ccc2c(c1)C(=O)N(C)C[C@H](OC)[C@H](C)CN(Cc1cccnc1)[C@H](C)CO2 | -5.3
COc1cccc(S(=O)(=O)N2CCCCN3[C@H](CO)[C@H](c4ccc(-c5cncnc5)cc4)[C@H]3C2)c1 | -6.4
COc1ccc(CN2[C@H](CO)[C@H]3c4ccccc4N(C(=O)c4ccccc4)C[C@H]32)cc1 | 6.7
C[C@@H]1CN([C@H](C)CO)C(=O)Cc2cc(NC(=O)Nc3ccc4c(c3)OCO4)ccc2O[C@@H]1CN(C)Cc1ccncc1 | -10.4
O=C(C[C@H]1C[C@H]2c3cc(NC(=O)C4CCOCC4)ccc3O[C@H]2[C@H](CO)O1)NCCc1ccccc1 | 7.1
C[C@H](CO)N1C[C@H](C)[C@H](CN(C)C(=O)Nc2cccc3ccccc23)Oc2c(NS(=O)(=O)c3cccs3)cccc2C1=O | 19.0
O=C(C[C@H]1CC[C@H]2[C@@H](COC[C@H](O)CN2C(=O)c2ccccc2F)O1)N1CCN(c2ccccc2)CC1 | 15.1
CO[C@@H]1CN(C)C(=O)c2cc(NC(=O)Nc3cc(F)ccc3F)ccc2OC[C@@H](C)N(C(=O)c2cnccn2)C[C@H]1C | 1.0
CCCN1[C@@H]2Cn3c(ccc(-c4cccc(F)c4)c3=O)[C@H]1[C@@H](C(=O)NCC)[C@@H]2CO | 3.6
CCC(=O)Nc1ccc2c(c1)C(=O)N(C)C[C@H](OC)[C@@H](C)CN(CC1CCCCC1)[C@@H](C)CO2 | -11.5
O=C(C[C@@H]1C[C@H]2c3cc(NC(=O)CC4CC4)ccc3O[C@H]2[C@@H](CO)O1)NCc1cccc(F)c1 | -8.8
Cc1noc(C)c1S(=O)(=O)Nc1ccc2c(c1)C(=O)N([C@@H](C)CO)C[C@@H](C)[C@@H](CN(C)Cc1ccc(C(=O)O)cc1)O2 | -12.2
COc1ccc(CN(C)C[C@H]2Oc3ccc(NC(=O)CCC(F)(F)F)cc3C(=O)N([C@@H](C)CO)C[C@H]2C)cc1 | 15.1
CCC(=O)Nc1ccc2c(c1)OC[C@H](C)N(C(=O)Cc1cccnc1)C[C@H](C)[C@H](OC)CN(C)C2=O | 8.9
COCCNC(=O)[C@@H]1[C@@H](CO)[C@@H]2Cn3c(ccc(C4=CCCCC4)c3=O)[C@H]1N2C(=O)C1CC1 | 19.0
CN(C[C@@H]1N[C@@H](CO)[C@@H]1c1ccc(C2=CCCC2)cc1)S(C)(=O)=O | 1.2
CCCNC(=O)NC[C@@H]1[C@@H](c2ccc(C3=CCCC3)cc2)[C@H](CO)N1C(C)=O | -5.9
O=C(Nc1nccs1)[C@H]1[C@H](CO)[C@H]2Cn3c(ccc(-c4cccnc4)c3=O)[C@H]2N1CC1CCCC1 | -4.0
COc1ccc(NC(=O)Nc2ccc3c(c2)C(=O)N([C@H](C)CO)C[C@@H](C)[C@H](CN(C)C(=O)Nc2ccc(C(F)(F)F)cc2)O3)cc1 | -8.5
COc1ccc(C(=O)N2C[C@@H]3[C@H](c4ccccc42)[C@H](CO)N3C(=O)NC(C)C)cc1 | -7.0
C[C@H](CO)N1C[C@H](C)[C@@H](CN(C)C(=O)Nc2ccc(F)cc2)Oc2c(NS(C)(=O)=O)cccc2C1=O | 3.6
CN1c2ccc(-c3ccccc3F)cc2[C@H]2[C@H](CCN2S(=O)(=O)c2ccccc2F)[C@H]1CO | -1.3
C[C@@H]1CN([C@@H](C)CO)C(=O)Cc2cc(NS(=O)(=O)c3ccccc3)ccc2O[C@H]1CN(C)C(=O)Nc1ccc(F)cc1 | 40.7
C[C@H]1CN([C@@H](C)CO)C(=O)c2cc(NS(=O)(=O)c3ccccc3)ccc2O[C@@H]1CN(C)C(=O)NC1CCCCC1 | -0.5
CCC(=O)NC[C@H]1[C@@H](c2ccc(C3=CCCC3)cc2)[C@H](CO)N1C(C)=O | 11.8
O=C(C1CC1)N1C[C@@H]2[C@H](c3ccccc31)[C@@H](CO)N2Cc1ccccc1Cl | -14.9
CCCNC(=O)C[C@@H]1CC[C@@H]2[C@H](COC[C@H](O)CN2C(=O)C2CCOCC2)O1 | -9.8
C[C@@H]1CN([C@H](C)CO)C(=O)Cc2cc(NS(C)(=O)=O)ccc2O[C@@H]1CN(C)Cc1ccc(Oc2ccccc2)cc1 | -4.3
O=C(C[C@H]1CC[C@H]2[C@@H](COC[C@@H](O)CN2S(=O)(=O)c2cccc(Cl)c2)O1)NC1CCCC1 | 12.7
CC(=O)NC[C@@H]1[C@@H](c2ccc(-c3ccccc3)cc2)[C@@H](CO)N1C(=O)C1CC1 | -4.6
COCC(=O)N(C)C[C@H]1[C@H](c2ccc(-c3cccnc3)cc2)[C@H](CO)N1C(C)=O | 6.0
COc1ccccc1NC(=O)N1CC[C@@H]2[C@H]1c1cc(C#Cc3cccc(F)c3)ccc1N(C)[C@@H]2CO | -1.5
O=C(c1ccccc1F)N1CC[C@@H]2[C@H]1c1cc(-c3ccccc3)ccc1N[C@@H]2CO | 12.5
O=C(C1CCC1)N1CC[C@H]2[C@H](CO)Nc3ccc(-c4cccc(F)c4)cc3[C@H]21 | -8.5
COCC(=O)Nc1ccc2c(c1)C(=O)N(C)C[C@H](OC)[C@@H](C)CN(CC1CCCCC1)[C@@H](C)CO2 | -8.6
Cc1ccccc1S(=O)(=O)N1CC[C@@H]2[C@H]1c1cc(-c3ccccc3F)ccc1N[C@@H]2CO | -10.5
CCNC(=O)[C@@H]1[C@@H](CO)[C@@H]2Cn3c(ccc(-c4ccc(F)cc4)c3=O)[C@@H]2N1Cc1cc(F)ccc1F | 21.0

Bioassay records deposited in PubChem BioAssay by Broad Institute.
